Source: PubChem
gsp agonist = gsp mutant agonism; gsp mutant cells, cAMP HTRF, 30 min; control for the full effect not named in the record; Potency, µM (doses to about 76.9 µM), for the others: at the highest dose activation (cAMP increase), hits mostly activators; 340,000 compounds, 0.13% hits; AID 624287; active = well fitted activation curve with a large enough effect; inconclusive = small, poorly fitted or top-dose-only effect, or another doubt; inactive = no such curve, though single readings can be large or run the other way; cell line not stated here;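 note: phosphodiesterase inhibitor Ro 20-1724 added with compounds to block cAMP breakdown; potency is the fitted concentration of half-maximal effect; nearly all actives have a fitted effect of over 60% in size; about a fifth of the inactives were tested at one dose only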
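Cells in DMEM/10% FBS with G418 were pretreated with compounds in DMSO plus […] (300 uM stock) for 30 min at 37C. cAMP was measured by HTRF (cAMP-d2 plus anti-cAMP antibody-K) after 30 min at room temperature.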
ClpP mod = qHTS Assay for Activators of ClpP | purified B. subtilis ClpP, FRET peptide cleavage, 20 min | ATP-dependent Clp protease proteolytic subunit (Bacillus subtilis (strain 168)), P80244 | 340,000 compounds, 1.9% hits | Potency, µM (doses to about 57.5 µM), for the others: at the top dose activity change, negative = active | AID 651965, 2013; active = well fitted falling curve with a large enough effect; inconclusive = small, poorly fitted or top-dose-only effect; inactive = no such curve, though single readings can be large or run the other way; note: potency is the fitted concentration of half-maximal effect; the source files actives as falling curves though it sought activators and does not explain the sign; nearly all actives have a fitted effect of over 65% in size; many hits overshoot -100%
Target sequence (P80244 whole entry, looked up): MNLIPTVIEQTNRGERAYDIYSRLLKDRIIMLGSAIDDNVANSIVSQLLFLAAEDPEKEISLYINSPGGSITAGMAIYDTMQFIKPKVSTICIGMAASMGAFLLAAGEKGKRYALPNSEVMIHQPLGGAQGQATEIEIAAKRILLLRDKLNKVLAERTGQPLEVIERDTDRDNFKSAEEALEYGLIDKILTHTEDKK
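Purified B. subtilis ClpP, 10 microg/mL final in Tris/HCl pH8 with KCl, BSA, glycerol and Tween-20, cleaved an Abz/nitrotyrosine-quenched decapeptide. Fluorescence (ex 320, em 430) was read at 0 and 20 min at room temperature. Delta was normalized to 5.8 microM ADEP and DMSO/no-enzyme controls.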
Sfp PPTase inh = Sfp phosphopantetheinyl transferase inhibition; AID 1490; 310,000 compounds, 3.5% hits; Potency, µM, inactives show max response, negative = inhibition, actives largely listed as inhibitors; Biochemical Sfp PPTase activity, qHTS; active = well fitted inhibition curve with a large enough effect; inconclusive = small, poorly fitted or top-dose-only effect, or another doubt; inactive = no such curve, though single readings can be large or run the other way;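 note: the enzyme is Sfp with the accession as filed and its product quenches rhodamine fluorescence; potency is the fitted concentration of half-maximal effect; 0% = enzyme reaction without inhibitor and -100% = no enzyme wells; top concentration of the series not given in the record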
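Fluorescence-quenching assay with 15 nM Sfp, 5 uM rhodamine-CoA and 12.5 uM BHQ-2-labelled ybbR peptide in pH 7.6 Hepes/MgCl2 buffer. Enzyme was pre-incubated with compound for 15 min at room temperature. Rate was taken from the 30-min fluorescence change (525/598 nm).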
Menin-MLL FL inh = menin-MLL binding inhibition, fluorescein peptide | Fluorescence polarization, fluorescein-MLL peptide displacement from menin | FP activity change, % at 61.4 µM | 290,000 tested, under 10 active; inconclusive = falling polarisation curve, or a change in total fluorescence; inactive = total fluorescence flat and polarisation flat or rising; no compound was filed as active; the % refers to the polarisation; negative = inhibition;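 note: % of control where 0% means no effect; inhibitors lower the polarisation; unlabelled MLL peptide was the positive control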
TRPV1 PAM = potentiators of human vanilloid receptor 1 (TRPV1) | Q8NER1 | TRPV1-expressing cells, Fluo-8 calcium influx, capsaicin EC20 potentiation; host cell line not named in the record; control for the full effect not named in the record | potentiation, % at 8.33 µM | 320,000 compounds, 0.02% hits | AID 540277; active means potentiation above 80%; inconclusive means 30% to 80%; inactive means below 30%; note: 0% is about no effect
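Fluo-8 calcium influx in TRPV1-expressing cells, kinetic read (ex 480/em 520 nm). Compound added and read 3 min for agonist activity, followed by capsaicin at EC20 final and 2 min further read for enhancement.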
gsp antag = antagonizes gsp, the McCune-Albright syndrome mutation | Potency, µM (titrated, usually from 76.9 µM), for inactives: top-dose activity change, negative = inhibition, actives largely listed as inhibitors | 340,000 compounds, 0.4% hits | gsp-mutant cells, cAMP HTRF, 30 min; control for the full effect not named in the record; active = falling curve of any shape with a large fitted effect; inconclusive = falling curve, mostly with a smaller effect; inactive = flat or rising curve; cell line not stated here;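 note: intracellular cAMP measured with PDE inhibitor Ro 20-1724 present during compound exposure; potency is the fitted concentration of half-maximal effect; % is set by controls: 0 for no effect and ±100 for the full control effect; nearly all actives have a fitted effect of over 65% in size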
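HTRF cAMP measurement after 30 min RT detection following 30 min, 37C compound treatment alongside […] (added as 300 uM solution) in G418-selected cells seeded at 2000/well and grown 16–24 h.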
D2 PAM = potentiates the human D2 dopamine receptor allosterically. P14416. DiscoveRx D2 beta-arrestin cells, luminescence, 90 min; 100% = 57 uM dopamine signal. potentiation, % (test concentration not listed). 360,000 compounds, 0.23% hits. AID 624464; active = potentiation of 50% or more; inconclusive = 30% to 50%; inactive = 30% or less;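 note: compound concentration not given in the record; tested on top of an EC20 dose of dopamine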
Target sequence (P14416 whole entry, looked up): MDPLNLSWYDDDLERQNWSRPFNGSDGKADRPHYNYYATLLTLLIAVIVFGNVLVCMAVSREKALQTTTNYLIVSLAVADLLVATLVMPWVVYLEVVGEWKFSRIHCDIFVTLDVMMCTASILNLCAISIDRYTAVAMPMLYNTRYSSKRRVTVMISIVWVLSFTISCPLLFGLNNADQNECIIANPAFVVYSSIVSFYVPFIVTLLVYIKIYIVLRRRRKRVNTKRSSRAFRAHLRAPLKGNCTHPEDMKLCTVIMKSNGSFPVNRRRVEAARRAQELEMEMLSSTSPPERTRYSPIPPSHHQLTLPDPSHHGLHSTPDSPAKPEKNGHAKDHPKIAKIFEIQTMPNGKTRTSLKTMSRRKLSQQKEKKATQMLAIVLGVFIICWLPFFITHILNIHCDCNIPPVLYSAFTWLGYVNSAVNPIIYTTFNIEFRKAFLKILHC
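PathHunter beta-arrestin assay in DiscoveRx D2 cells. Compounds were added with an EC20 of dopamine (50 nM final) for 90 min at 37 deg C. Luminescence was read 1 h after detection reagent, with 57 uM dopamine as the EC100 control.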
* marks the source's active call; other numbers are inactive results; u = inconclusive; x = no result given; & = joins results of further samples; [ ] = remark or other dose.

nr	SMILES	gsp agonist	ClpP mod	Sfp PPTase inh	Menin-MLL FL inh	TRPV1 PAM	gsp antag	D2 PAM
1	Clc1ccc(CN2CCC(c3nc4ccc(Cl)cc4[nH]3)CC2)cc1	-17.3%	1.2%	-11.4%	5.3	-4.9	-6.5%	-37.1
2	COCC(=O)Nc1cc(C(=O)OC)cc(C(=O)OC)c1	1.0%	-1.6%	-0.1%	6.2	-4.4	23.2%	1.4
3	CCn1cc(/C=C(\NC(=O)c2ccccc2OC)C(=O)NCCN2CCOCC2)c2ccccc21	7.2%	-2.6%	x	x	x	x	-9.4
4	COc1ccc(C2c3c(ncn(CCN4CCOCC4)c3=N)Oc3ccc4ccccc4c32)cc1 (stereo not given)	-10.5%	2.3%	-9.6%	-0.8	-14.2	-0.8%	14.0
5	COC(=O)Cc1ccc(NC(=S)N2CCCCC2C)cc1 (stereo not given)	12.0%[15.4 µM]	-3.4%	-3.4%	-2.9	-7.2	2.8%	-2.0
6	C[C@H]1CN([C@@H](C)CO)C(=O)CCCn2nncc2CO[C@H]1CN(C)C(=O)C1CC1	u	1.0%	x	x	x	x	1.8
7	O=C(c1cncc(Br)c1)N1CCN(S(=O)(=O)c2ccc3ccccc3c2)CC1	9.9%[15.4 µM]	0.5%	x	x	x	-18.5%	-18.0
8	Cc1ccc(-c2nn(-c3ccccn3)c(=O)c3ccccc23)cc1	-16.5%	x	7.7%	2.8	-4.7	-13.9%	-7.1
9	O=C(Nc1nnc(SCc2c(Cl)cccc2Cl)s1)C1CCCO1 (stereo not given)	-20.4%	-2.0%	8.0%	-1.0	-1.8	29.0%	-11.0
10	COc1ccc(C(=O)/C=C/c2ccc(OCc3ccccc3)cc2)cc1CSCC(=O)O	17.2%	-3.6%	8.4%	x	u	u	-6.5
11	COC(=O)c1cc(COc2ccc3c4c(c(=O)oc3c2)CCCC4)c(C)o1	11.8%	-14.6%	13.9%	1.2	1.0	-2.5%	-4.1
12	CC1Cc2cc(/C(O)=C3/C(=O)C(=O)N(CCCn4ccnc4)C3c3ccncc3)ccc2O1 (stereo not given)	u	0.2%	-1.3%	-2.0	-4.7	13.7%	1.2
13	COc1ccc(-c2ccnc(SCC(=O)c3ccc(Br)cc3)n2)cc1	4.5%	-2.4%	-6.3%	6.3	-3.7	1.7%	-1.0
14	COc1ccc(NC(=O)CN2C(=O)NC(C)(c3ccc(C)cc3)C2=O)c([N+](=O)[O-])c1 (stereo not given)	-6.1%[15.4 µM]	x	-2.1%	-8.3	3.6	-4.1%	0.0
15	COc1ccc(Nc2nc(-c3cccc([N+](=O)[O-])c3)nc3ccccc23)cc1	-0.8%	-3.2%	8.5%	1.1	-27.7	-8.3%	-16.9
16	CC(C)N(Cc1ccccc1)S(=O)(=O)c1ccc(Cl)nc1	9.4%[15.4 µM]	x	x	x	-8.9	-6.2%	-1.9
17	CN(C)c1ccc(-c2ccc([C@H]3[C@@H]4C=CCC[C@@]4(C)C(=O)N3Cc3ccccc3)c(F)c2)cc1	x	3.5%	u	1.6	-65.0	-0.9%	-12.3
18	O=C(Cn1nnc2ccccc21)NNC(=S)NC1CCCCC1	0.0%	x	0.8%	2.3	-0.9	-4.9%	-6.7
19	CCOC(=O)C(C)N1c2cccc3cccc(c23)S1(=O)=O (stereo not given)	-4.1%	u	x	x	x	x	-14.3
20	COc1cc(S(=O)(=O)n2c(C)nc3ccccc32)ccc1F	-2.4%	-0.9%	5.2%	-0.8	-1.3	14.7%	-1.1
21	CCN(CC)C(=O)CSc1nnc2nnc3cc(Cl)ccc3n12	-5.5%[15.4 µM]	x	8.7%	u	7.5	-3.1%	-2.8
22	COc1ccccc1NC(=O)Cn1nnc(C(=O)Nc2ccccc2)c1N	-17.4%	-2.3%	u	5.8	-33.6	0.7%	-5.5
23	O=C(CN1CCCCCC1)NCCc1ccc(F)cc1	-18.1%	-0.2%	u	-0.2	x	6.1%	-5.8
24	CCCCN1CC(O)=C(c2nc3ccccc3[nH]2)C1=N	13.6%[15.4 µM]	1.2%	-5.6%	2.8	-4.3	-8.4%	-3.7
25	O=C(c1ccc(Cl)c(NC2=NC3CS(=O)(=O)CC3S2)c1)N1CCN(c2ccccc2)CC1 (stereo not given)	10.5%	-0.1%	9.5%	x	13.0	19.7%	0.7
26	O=C(CN(Cc1ccco1)C(=O)CNS(=O)(=O)c1ccc(Cl)cc1)NCc1ccco1	u	x	10.5%	0.3	7.2	0.1%	-1.1
27	C/C(=N/NC(=O)c1cccs1)c1cccc(NC(=O)C2CC2)c1	-27.7%	-0.2%	-1.2%	2.4	-6.2	0.4%	-15.3
28	N#Cc1ccc(C(=O)Nc2cc(S(=O)(=O)N3CCOCC3)ccc2N2CCOCC2)cc1	-38.4%[inhibitor]	2.8%	x	x	x	x	-4.0
29	CCOC(=O)C1CCN(C(=O)c2[nH]c3ccc(OC)cc3c2C)CC1	6.9%	x	7.1%	-6.5	-4.7	-3.6%	3.9
30	CC(=O)c1ccc(N(CC(=O)NC2CCCC2)C(=O)CNC(=O)c2ccco2)cc1	-4.4%[15.4 µM]	-14.2%	21.1%	-3.9	22.4	5.9%	-9.1
31	CCN1CCc2c(C#N)c(N3CCOCC3)nc(NCc3ccccc3)c2C1	-5.2%[15.4 µM]	2.3%	7.3%	5.1	0.9	-17.6%	-11.0
32	CCCCCCCSc1ncnc2[nH]ncc12	u	x	x	x	x	6.0%	-7.2
33	CCOc1ccc(C2/C(=C(\O)c3ccc4c(c3)OCCO4)C(=O)C(=O)N2CCCn2ccnc2)cc1OC (stereo not given)	u	2.9%	14.5%	-2.7	-7.4	11.3%	-4.0
34	CC1=C(C(=O)OCC(Br)(Br)Br)C(c2cccc([N+](=O)[O-])c2)NC(=O)N1CCCC(=O)O (stereo not given)	-6.3%	0.9%	x	x	x	-20.8%	-5.6
35	Cc1[nH]c2ccc(C(=O)N3CCN(c4ccc(F)cc4)CC3)cc2c1C	-29.4%	-1.5%	1.0%	-1.4	10.6	-10.6%	-17.0
36	Nc1ccc(-c2nc3c(Cl)c(N)ccc3[nH]2)cc1	13.3%[15.4 µM]	28.2µM*	13.1%	2.5	-0.9	u	3.1
37	COc1cccc(NC(=O)Cc2cn(C)c3ccccc23)c1	7.0%	2.7%	4.7%	2.2	-19.5	-7.7%	-16.4
38	CN(C)c1ccc(-c2nnc(-c3cccnc3)o2)cc1	0.7%[15.4 µM]	0.6%	7.7%	0.7	u	8.5%	-8.5
39	CC1CCCCN1S(=O)(=O)c1ccc2[nH]c(=O)cc(C(=O)NCCCN3CCCCCC3)c2c1 (stereo not given)	-21.3%	-6.7%	-0.9%	0.6	2.3	-7.6%	-19.0
40	COc1cc(NC(=O)COC(=O)CCCC2=NS(=O)(=O)c3ccccc3N2)cc(OC)c1	8.7%	-0.1%	16.5%	x	3.9	6.1%	-32.4
41	O=C(CN1CCN(c2ccccc2)CC1)Nc1ccncc1	5.8%	-1.0%	18.5%	-3.5	-17.2	6.5%	9.5
42	COc1ccc(-c2noc(CSc3nc(N)c(-c4ccccc4)c(=O)[nH]3)n2)cc1	u	-0.5%	10.7%	4.7	12.1	-7.4%	2.5
43	Cn1c(SCC(=O)NC2CCCCC2)nnc1-c1cccc(N)c1	-13.6%	-1.3%	-9.1%	2.2	u	11.0%	17.1
44	Cc1cc(F)ccc1S(=O)(=O)Nc1ccccc1C(=O)NCc1ccccn1	-16.5%[15.4 µM]	x	-2.1%	-7.6	-6.1	-12.9%	-8.7
45	Cc1ccc(SCCN2CCC(NC(=O)OCc3ccccc3)CCC2=O)cc1 (stereo not given)	-7.7%	1.0%&1.6%	0.0%	-0.1	-11.5	-13.0%	-6.8
46	O=C(NC1CCCC1)C1CCN(S(=O)(=O)N2CCCCC2)CC1	-21.1%	1.5%	4.6%	2.2	-4.1	u	-1.4
47	CN1CCN(c2ccc([N+](=O)[O-])cc2C(=O)c2ccccc2)CC1	-34.5%	-7.6%	-1.4%	-7.3	-3.6	11.7%	-36.9
48	Cc1ccnc(NC(=O)c2cccc(S(=O)(=O)N3CCN(c4ccc(F)cc4)CC3)c2)c1	13.8%[15.4 µM]	-1.9%	x	x	-9.2	-2.2%	4.8
49	Cc1c(Br)cc(C(=O)N2CCCCCC2)c(C)c1C	-41.3%[inhibitor]	1.9%	u	13.3	-14.5	-9.7%	-3.6
50	Cc1ccccc1NC1=NC(C)(C)N=C(N)N1	1.6%	-0.1%	9.7%	1.4	11.0	13.3%	-2.1
51	CC1(C)CC(=O)C(C=Nc2ccc(O)cc2)=C(O)C1	-0.8%	0.6%	9.6%	0.4	1.6	4.1%	-7.4
52	O=C1CCCC2=C1C(c1ccc(O)c(O)c1)Nc1ccc3ncccc3c12 (stereo not given)	13.2%	0.1%	u	-0.5	6.7	-4.3%	-4.2
53	O=C(/C=C/c1ccccc1)N1CCC(N2CCC(C(=O)N3CCOCC3)CC2)CC1	-12.4%[15.4 µM]	x	14.5%	0.9	1.0	6.5%	-6.0
54	CCOC(=O)c1ccc(N/C(=N\S(=O)(=O)c2ccccc2C)c2ccccc2)cc1	-14.5%	-2.2%	19.9%	-1.6	10.8	u	-8.3
55	Cc1ccc(S(=O)(=O)Nc2ccc3c(c2)C(=O)N([C@H](C)CO)C[C@H](C)[C@@H](CN(C)Cc2ccccc2)O3)cc1	x	-3.5%	x	x	x	-10.4%	-9.8
56	COc1ccc(-c2nc(CCl)cs2)cc1OC	-1.2%[15.4 µM]	x	-9.9%	-2.9	1.5	-3.5%	-7.0
57	O=C(NC1CCCCCC1)c1c(F)c(F)c(F)c(F)c1F	26.7%	-2.2%	12.5%	-0.6	-33.4	-4.0%	-13.2
58	C/C(=N\O)c1cc(Cl)cc(Cl)c1O	0.9%[15.4 µM]	1.4%	30.5%	-0.4	6.1	-14.0%	-8.0
59	Cc1cccc(C)c1NC(=O)C(NC(=O)c1ccccn1)c1ccc([N+](=O)[O-])cc1 (stereo not given)	13.2%	0.7%	-0.3%	-0.2	13.6	10.2%	-33.9
